# From PubChem BioAssay
# ALR H2O2 inh: human ALR oxidase inhibition via reduced H2O2; purified ALR, DTT oxidation, H2O2 HRP-luminol luminescence; actives 3.8% (n = 290,000); AID 485317; inhibition, % (concentration not given with the values);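 active means mean and each replicate at 75% or more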;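 further: stock transfer was 7.5 nL into about 7.5 µL; 0% = neutral wells and 100% = wells with inactivated enzyme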
# Target sequence (P55789 whole entry, looked up): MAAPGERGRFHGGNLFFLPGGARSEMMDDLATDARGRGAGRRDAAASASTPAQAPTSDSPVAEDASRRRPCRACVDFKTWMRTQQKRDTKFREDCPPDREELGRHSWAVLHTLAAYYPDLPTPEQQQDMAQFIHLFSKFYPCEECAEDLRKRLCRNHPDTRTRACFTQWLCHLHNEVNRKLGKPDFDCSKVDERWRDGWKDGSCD
# Beta2AR agonist: activates human beta-2 adrenergic receptor causing internalization; P07550; Am2.2-beta2AR cells, FAP receptor internalization, flow cytometry; reference of the scale not given here; response, % (concentration not given with the values); AID 504454; actives 0.43% (n = 340,000);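 active means response above a set limit, near 3 SD of response in nonfluorescent compounds, cut at about 42% in these data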;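 further: stock transfer was 100 nL into about 11 µL; a reference agonist was the positive control; negative values mostly stem from fluorescent compounds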
# UCH37 DUB inh: inhibitors of human deubiquitinating enzyme UCH37. purified proteasome/UCH37, Ub-AMC cleavage fluorescence. actives 0.33% (n = 330,000). Q9Y5K5. inhibition, % (concentration not given with the values). AID 588478;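 active means mean of two replicates above 20%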;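 further: 0% = compound-free wells with enzyme and 100% = wells lacking proteasome; stock transfer was 100 nL into about 20 µL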
# Target sequence (Q9Y5K5 whole entry, looked up): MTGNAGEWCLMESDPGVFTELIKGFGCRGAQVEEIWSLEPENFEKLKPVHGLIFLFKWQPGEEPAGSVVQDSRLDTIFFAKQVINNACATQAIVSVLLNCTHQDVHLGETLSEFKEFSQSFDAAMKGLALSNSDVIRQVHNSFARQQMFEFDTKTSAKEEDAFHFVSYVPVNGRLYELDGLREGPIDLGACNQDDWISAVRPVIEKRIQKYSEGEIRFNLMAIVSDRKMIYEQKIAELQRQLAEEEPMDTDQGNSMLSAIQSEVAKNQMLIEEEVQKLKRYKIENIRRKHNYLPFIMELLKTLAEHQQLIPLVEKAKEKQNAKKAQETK
#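 Schedule: 30 min plus 25 min, room temperature / Material: human UCH37 within purified proteasomes / Technique: AMC fluorescence intensity at 355/460 nm / Buffer or medium: pH 7.4 Tris-HCl (50 mM) with ovalbumin, ATP-MgCl2, DTT / Controls: wells without proteasome as full block, compound-free enzyme plus substrate as uninhibited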
# rRNA inh HTS: selective bacterial rRNA inhibition in E. coli; actives 1.6% (n = 350,000); GFP signal change (wild-type ribosome), % (concentration not given with the values); E. coli WT GFP vs humanized-ribosome RFP mutants, fluorescence, 24 h; hits give low values; DMSO median 0, no signal -100; AID 720706;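 active means significant combined selectivity score with lowered wild-type GFP, culture density cut under 30%, mutant RFP and density less affected; inactive means any of these conditions unmet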; further: one replicate is shown; some compounds called inactive have numbers as strong as hits
# HNF4A DNA FP: change in binding of human HNF4 alpha to DNA. P41235. HNF4a-FITC DNA binding, fluorescence polarization, 1 h. activity change, % at 10 µM. actives 0.3% (n = 360,000); in the data active means activity change above about 30%, passing the limit was not always enough;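 further: controls were the assay level and a saturating level of protein; the project sought stronger binding though the title names inhibitors; some compounds called inactive have numbers as strong as hits; positive values seem to mean higher polarization but the record does not say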
# FGF22 binding: binders of recombinant human FGF22 by thermal shift; Q9HCT0; SYPRO orange fluorescence; percent of sucrose octasulfate shift, DMSO zero; calls only at 9.99 µM; actives 1.5% (n = 340,000);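 active means melting point raised past a set limit in the mean and every replicate; three in four hits are not shown here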
# Target sequence (Q9HCT0 whole entry, looked up): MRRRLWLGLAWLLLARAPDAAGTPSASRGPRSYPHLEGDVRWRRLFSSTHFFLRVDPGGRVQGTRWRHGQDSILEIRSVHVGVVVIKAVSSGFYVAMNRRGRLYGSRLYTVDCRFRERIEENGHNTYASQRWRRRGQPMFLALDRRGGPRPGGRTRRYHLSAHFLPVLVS
# E coli growth: inhibitors of Escherichia coli growth | AID 1053175 | OD600 absorbance (test concentration not listed) | actives 0.21% (n = 330,000) | OD600, 23 h; hits give low values;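 active means OD600 absorbance below the run mean of sample wells minus 3.6 SD, in any replicate, cut at about 0.56 in these data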;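 further: stock transfer was 300 nL into about 60 µL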
# rRNA inh HTS OD600: further read-out of rRNA inh HTS, marked with its call; OD600 change, %; measured here: OD600 growth;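 optical density of the mix in the first replicate; 0 = DMSO median and -100 = no signal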
# rRNA inh HTS RFP: second read-out of rRNA inh HTS, no call of its own (marks repeat the call); RFP signal change, %; measured here: RFP humanized mutant strains;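 first replicate; 0 = DMSO median and -100 = no signal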
# Starred values were filed as active, the others as inactive; i = inactive; nt = no result given. Only part of the results is shown; the hit share may differ from the screen's.
smiles | rRNA inh HTS RFP | HNF4A DNA FP | rRNA inh HTS OD600 | rRNA inh HTS | Beta2AR agonist | UCH37 DUB inh | FGF22 binding | ALR H2O2 inh | E coli growth
Cc1cc(C(=O)OCC(=O)Nc2cc(C)on2)c2ccccc2n1 | -1.3 | -3.5 | 8 | -1 | 9 | -15 | nt | -5 | 0.7
CC(C)N1C(=O)c2ccccc2C1C(=O)NC1CCCCCC1 (configuration not stated) | nt | -4.5 | nt | nt | -7 | 1.0 | nt | -2 | 0.62
Cc1nc2c(C)cccn2c(=O)c1NC(=O)c1cccc2ccccc12 | -1.2 | -1.4 | -1 | -1 | -9 | -38 | i | -11 | 0.75
CC(=O)Nc1scc(-c2ccccc2)[n+]1-c1ccc(C)cc1 | -7.2 | 4.6 | -10 | -2 | -6 | 2.5 | i | -10 | 0.65
Cc1ccc(S(=O)(=O)N2C[C@@H](C)[C@]3(C2)[C@H](O)[C@H](OC(=O)Nc2c(C)noc2C)C[C@H]2C(=O)N(c4ccccc4)C(=O)[C@H]23)cc1 | 2.5 | 2.6 | 12 | 16 | nt | nt | i | nt | nt
CCN(CC)S(=O)(=O)c1ccc(Oc2cccc(C(C)=O)c2)nc1 | nt | -2.1 | nt | nt | -1 | 4.7 | nt | -3 | 0.72
O=C(COC(=O)c1cccc(C(=O)OCC(=O)NC2CCCCC2)n1)NC1CCCCC1 | nt | 1.1 | nt | nt | -4 | 3.9 | nt | nt | 0.75
COc1ccc(NC(=O)CN(C)C(=O)C2=COCCO2)cc1 | 0.2 | 1.7 | 1 | 0 | 1 | 1.4 | i | 9 | 0.71
CCN(CC)CCNC(=O)Cn1cnc2sc(C)c(S(=O)(=O)N3CCN(c4ncccn4)CC3)c2c1=O | 4.3 | -0.2 | 19 | 13 | -13 | -0.9 | nt | -4 | 0.67
COc1ccccc1NC(=O)c1nn(C)c(C(=O)Nc2ccccc2OC)c1[N+](=O)[O-] | 5.1 | 3.0 | -4 | -11 | -1 | 3.4 | i | nt | 0.69
Cc1cc(=O)oc(C)c1C(=O)NCCCN1C(C)CCCC1C (configuration not stated) | nt | -0.9 | nt | nt | 3 | 9.3 | nt | -8 | 0.75
Cn1c(Cc2ccccc2)nnc1SCC(=O)Nc1ccccc1 | 1.5 | -0.6 | 13 | 15 | -4 | 3.7 | i | -10 | 0.66
COc1ccccc1OC(=O)C1CC(=O)N(c2ccc(Cl)cc2)C1 (configuration not stated) | nt | -4.7 | nt | nt | 2 | 2.0 | nt | 50 | 0.66
COc1ccc(OC)c2[nH]c(C(=O)O)cc12 | -2.5 | 3.8 | 8 | 6 | -5 | -7.1 | i | 33 | 0.66
CCOC(=O)c1ccc[n+](CC(=O)c2ccccc2)c1 | nt | 0.3 | nt | nt | -1 | 0.4 | nt | 15 | 0.68
CNC(=O)NC(=O)CSc1nnc(C(F)(F)F)n1C | nt | 0.6 | nt | nt | 13 | -0.9 | nt | -4 | 0.68
O=C(N1CCN(Cc2ccc3c(c2)OCO3)CC1)C12CC3CC(CC(C3)C1)C2 | nt | nt | nt | nt | nt | -1.1 | nt | -3 | 0.68
NC(Cc1ccc2nonc2c1)C(=O)O (configuration not stated) | nt | 2.0 | nt | nt | -1 | -3.7 | nt | -62 | 0.76
CC(=O)c1cccc(NC(=O)Nc2ccc3c(c2)CCC3)c1 | -1.0 | -1.9 | -2 | -5 | 3 | 2.4 | i | -1 | 0.71
COc1ccc(CNC(=O)CN2CCN(c3ccc(F)cc3)CC2)cc1 | -0.6 | -7.8 | 2 | 0 | 5 | 2.1 | i | 20 | 0.67
Cc1cccc(N2CCN(C(=S)Nc3ccc4nc(N5CCN(C)CC5)cc(C)c4c3)CC2C)c1 (configuration not stated) | 12 | 5.0 | 12 | 8 | 15 | -22 | i | nt | 0.68
CCN(C(=O)C1CCCN1S(=O)(=O)c1cccc2nsnc12)c1ccccc1 (configuration not stated) | 8.6 | 2.7 | 4 | 6 | 0 | 0.9 | i | -5 | 0.64
COc1ccc(C)cc1NC(=O)COC(=O)Cc1c[nH]c2ccccc12 | 1.9 | 0.9 | -20 | -7 | nt | nt | i | nt | nt
COc1ccc(C(CNC(=O)Cc2cccs2)N(C)C)cc1 (configuration not stated) | 1.9 | 0.6 | 6 | 16 | -7 | 1.4 | i | 1 | 0.69
CCOCCCNC(=O)C(NC(=O)c1ccc2c(c1)OCO2)c1ccc(OC)cc1 (configuration not stated) | -1.7 | -0.7 | 14 | 0 | -7 | 4.5 | nt | -5 | 0.68
CCNc1nc2ccccc2[nH]1 | nt | -2.2 | nt | nt | -3 | -0.2 | nt | 10 | 0.74
Cc1ccn(CC(C)C(=O)O)n1 (configuration not stated) | -0.8 | -2.7 | 20 | 14 | -2 | 1.4 | i | -3 | 0.68
O=C(O)CSc1c2ccccc2cc2ccccc12 | -1.2 | -6.5 | -1 | -4 | 10 | -82 | i | 99* | 0.68
CCOC(=O)c1c2ccc(OCC(=O)N/N=C/c3ccc(C)cc3)cc2n2ccccc12 | nt | -0.4 | nt | nt | -1 | nt | nt | -50 | nt
Cc1ccccc1N=C1NC(=O)/C(=C/c2cccn2C)S1 | 3.6 | 22 | -4 | -4 | 7 | 8.6 | i | 24 | 0.63
Cc1cc(C(=O)Nc2ccon2)c(C)o1 | 0.2 | -1.1 | 6 | 12 | -4 | 5.2 | i | 45 | 0.7
CN1C(=O)NC(NC(=O)C2CCCCC2)(C(F)(F)F)C1=O (configuration not stated) | nt | -1.8 | nt | nt | 0 | 4.1 | nt | -9 | 0.79
O=c1oc2cc(Oc3ccc(C(F)(F)F)cc3[N+](=O)[O-])ccc2c2c1CCCC2 | nt | -2.0 | nt | nt | -6 | -4.6 | nt | -2 | 0.73
Clc1ccc(Cn2nnc(-c3ccccc3)n2)cc1 | nt | 1.1 | nt | nt | 9 | 3.8 | nt | 2 | 0.67
CCn1cc(/C=C(\NC(=O)c2ccccc2F)C(=O)NCCCN2CCOCC2)c2ccccc21 | 1.0 | 0.6 | 5 | -2 | 6 | 9.6 | i | 10 | 0.7
O=C1CN(CN2CCCCC2)C(=O)CN1CN1CCCCC1 | 2.1 | 10 | 17 | 7 | nt | nt | i | nt | nt
COc1ccc(N2C(=O)C(CC(=O)Nc3ccc(F)cc3)N(CCc3cccs3)C2=O)cc1 (configuration not stated) | nt | 0.6 | nt | nt | -5 | 0.7 | nt | -7 | 0.71
COc1cc2c(C(=O)O)c(C)n(C)c2c2ccccc12 | -22 | -3.1 | 7 | 10 | 11 | -56 | i | nt | 0.68
CC(=O)Nc1ccc(-c2nnc(SCc3ccccc3C#N)n2C)cc1 | nt | -1.6 | nt | nt | -13 | 0.7 | nt | -8 | 0.7
CC(C)[C@H](NC(=O)[C@@H]1CSC2c3ccccc3C(=O)N21)C(=O)NCc1ccco1 (some centres not stated) | -1.2 | -4.2 | 0 | 1 | -1 | 1.2 | i | -6 | 0.65
Cc1cccc(N(C(=O)c2ccco2)C(C(=O)NC2CCCC2)c2cccnc2)c1C (configuration not stated) | -2.2 | 2.0 | -3 | 0 | 0 | -0.1 | nt | nt | 0.69
CCC(C(N)=O)N1C(=O)C2C3CCC(C3)C2C1=O (configuration not stated) | -0.3 | 0.0 | 4 | -2 | nt | nt | i | nt | nt
COc1cc(/C=C(\C#N)C(=O)NCc2cccs2)ccc1O | nt | -2.1 | nt | nt | 3 | 5.0 | nt | 99* | 0.65
COc1ccc(S(=O)(=O)N2Cc3ccccc3CC2C(=O)Nc2ccc(O)cc2)cc1OC (configuration not stated) | 2.9 | -1.2 | -12 | -5 | -8 | 2.8 | i | 95* | 0.72
CCSc1nnc2c3cc(CC)ccc3n(C)c2n1 | nt | -1.2 | nt | nt | 13 | -2.7 | nt | 8 | 0.7
CNc1c(NS(=O)(=O)c2ccc(Cl)s2)c(=O)oc2ccccc12 | -3.9 | -0.8 | 8 | 7 | -2 | -28 | i | nt | 0.71
C/C=C(\C)CN1CCC(n2nccc2NC(=O)CCCc2ccccc2)CC1 | -1.7 | 2.7 | 9 | 2 | -3 | 0.3 | i | -7 | 0.73
COc1cccc(NC(=O)c2oc3ccccc3c2NC(=O)c2ccc3c(c2)OCO3)c1 | nt | 1.8 | nt | nt | -1 | -36 | nt | -4 | 0.76
COc1ccc(CCNC(=S)NC(=O)c2ccccc2)cc1C | -7.9 | 1.8 | -6 | -13 | -16 | 2.8 | i | -2 | 0.69
C=CCOC(=O)/C(=C\c1ccccc1)NC(=O)c1ccco1 | 2.0 | 2.9 | 3 | 5 | 3 | 4.7 | i | -2 | 0.7
O=C(Nc1ccccc1Cl)C1(c2ccccc2)CC1(Cl)Cl (configuration not stated) | nt | -1.6 | nt | nt | 2 | 1.0 | nt | -4 | 0.7
O=[N+]([O-])c1cc([N+](=O)[O-])c2cc(-c3cccnc3)[nH]c2c1 | -2.4 | -6.5 | 8 | 5 | 5 | 4.8 | i | 0 | 0.67
Cc1cc(NC(=O)CSc2n[nH]c(-c3cccs3)n2)no1 | nt | -2.2 | nt | nt | -7 | 1.4 | nt | -2 | 0.71
O=C(Cn1c(=S)[nH]c2ccccc2c1=O)N1CCN(c2ccc(F)cc2)CC1 | -0.5 | 1.6 | 3 | 8 | -6 | -0.1 | i | 9 | 0.72
COc1ccc(OC)c(NC(=O)C2CCC(CNc3c(N4CCOCC4)c(=O)c3=O)CC2)c1 (configuration not stated) | 1.5 | 1.8 | 9 | 6 | 2 | 3.6 | i | -7 | 0.68
Nc1cc(S(=O)(=O)c2ccc(N3CCCCC3)c(N)c2)ccc1N1CCCCC1 | 3.3 | -3.5 | 3 | 2 | nt | nt | i | nt | nt

# In the list so far, these contain fluorine:
smiles | rRNA inh HTS RFP | HNF4A DNA FP | rRNA inh HTS OD600 | rRNA inh HTS | Beta2AR agonist | UCH37 DUB inh | FGF22 binding | ALR H2O2 inh | E coli growth
CNC(=O)NC(=O)CSc1nnc(C(F)(F)F)n1C | nt | 0.6 | nt | nt | 13 | -0.9 | nt | -4 | 0.68
COc1ccc(CNC(=O)CN2CCN(c3ccc(F)cc3)CC2)cc1 | -0.6 | -7.8 | 2 | 0 | 5 | 2.1 | i | 20 | 0.67
CN1C(=O)NC(NC(=O)C2CCCCC2)(C(F)(F)F)C1=O (configuration not stated) | nt | -1.8 | nt | nt | 0 | 4.1 | nt | -9 | 0.79
O=c1oc2cc(Oc3ccc(C(F)(F)F)cc3[N+](=O)[O-])ccc2c2c1CCCC2 | nt | -2.0 | nt | nt | -6 | -4.6 | nt | -2 | 0.73
CCn1cc(/C=C(\NC(=O)c2ccccc2F)C(=O)NCCCN2CCOCC2)c2ccccc21 | 1.0 | 0.6 | 5 | -2 | 6 | 9.6 | i | 10 | 0.7
COc1ccc(N2C(=O)C(CC(=O)Nc3ccc(F)cc3)N(CCc3cccs3)C2=O)cc1 (configuration not stated) | nt | 0.6 | nt | nt | -5 | 0.7 | nt | -7 | 0.71
O=C(Cn1c(=S)[nH]c2ccccc2c1=O)N1CCN(c2ccc(F)cc2)CC1 | -0.5 | 1.6 | 3 | 8 | -6 | -0.1 | i | 9 | 0.72
